# MgrA-DNA mod = modulators of Staphylococcus aureus MgrA DNA binding; fluorescence polarization; inhibition, %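 (about 10 µg/mL by stock and volumes)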; hit rate 0.13% among 84,000; AID 602314;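 active means above 50% in either of two replicates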;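 further: 0% = protein plus DNA without compound and 100% = DNA alone without protein; higher means less MgrA bound to DNA so lower polarization; one replicate is shown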
# S aureus helic = blocks Staphylococcus aureus DNA helicase. inhibition, %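 (tested at about 80 µM)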. hit rate 0.05% among 120,000. AID 485395. purified S. aureus helicase, fluorescence unwinding assay; about half of the hits fall short of the stated cut;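 active means both duplicates at 50% or more, or one of them with a favoured structure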;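 further: 0% = mean of negative control wells and 100% = mean of positive control wells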
# The depositor's hits bear a star; nt = not tested or not shown.
item	Molecule	MgrA-DNA mod	S aureus helic
1	Cc1ccc(NC(=O)CN2C(=O)c3ccccc3S/C2=C\C#N)cc1C	nt	-17
2	CC(=O)NC1C(=O)N(CCc2ccccc2)c2ccc(C)cc21 (stereo unspecified)	0.0	-5
3	CCOc1ccc2c(c1)sc(=NC(=O)CCOc1ccccc1)n2C	0.4	12
4	Cn1c(=O)c(=O)n(C)c2c3nsnc3ccc21	nt	48
5	COc1ccc(C(=O)Cn2c(=O)c(CCC(=O)O)nn3c4ccccc4nc23)cc1OC	-1.5	13
6	CC1CCCCN1C(=O)Cn1cc(C#N)c2ccccc21 (stereo unspecified)	-0.4	-2
7	CCCNC(=O)CCC1CCCCC1	nt	-1
8	Cc1nc2c(C(=O)NC(C)C)cnn2c(C)c1Cc1c(F)cccc1Cl	0.8	5
9	Cc1nonc1-c1csc(N)n1	nt	13
10	NNC(=S)NCc1ccc(F)cc1	0.2	nt
11	Cc1ccc2c(c1)c1c(n2CCC#N)C(=O)CCC1	nt	26
12	CCc1c(C)c(C#N)c2nc3ccccc3n2c1NCCN(C)C	nt	-3
13	Nc1cccnc1Oc1ccccc1F	2.3	nt
14	O=C(CCS(=O)(=O)c1ccccc1)N(Cc1ccccn1)c1nc2ccccc2s1	nt	17
15	CN(C)Cc1ccc(CSCCNC(=O)Nc2ccccc2)o1	nt	25
16	COc1ccc(CC(=O)Nc2cc(C)on2)cc1OC	-1.2	-14
17	O=C(c1ccc(Cl)cc1)c1oc2ccccc2c1-c1cnn(-c2ccccc2)c1	2.5	-1
18	O=C(Nc1ccccc1-c1ccccc1)C1CCCO1 (stereo unspecified)	-3.8	-2
19	Cn1c(SCc2ccc(F)cc2)nc2ccc(C(=O)NCCc3ccc(Cl)cc3)cc21	4.3	15
20	O=C(Cn1c2ccccc2c2cn[nH]c(=O)c21)NC1CCCC1	nt	-3
21	CCCNC(=O)CSc1nnc(-c2cccnc2)n1C1CCCCC1	3.9	-3
22	CCOC(=O)c1sc2ccc(NC(C)=O)cc2c1C	-1.1	nt
23	CCOc1ccc(N2C(=O)CC(NCCNC(=O)c3ccc(Cl)cc3)C2=O)cc1 (stereo unspecified)	0.3	-13
24	CCN1CCn2c1nc(N1CCCCC1)nc2=O	nt	-5
25	COc1ccc(Cn2c(=O)c(=O)oc3ccccc32)cc1OC	-3.2	11
26	Cc1cnc2c(c1SCC(=O)N1CCC(C)CC1)c(=O)n(C)c(=O)n2C	nt	5
27	Cc1cccc(C)c1Nc1nc2c(C)cc(C)c(C)c2s1	1.9	nt
28	COCCN1C(=O)/C(=C2/C(=O)N(OC)c3ccccc32)SC1=S	1.1	-4
29	CCOC(=O)c1[nH]c(C)c(CC)c1C	-1.6	nt
30	CCN(CC)CCCN1C(=O)C(O)=C(C(=O)c2ccc(C)o2)C1c1cccnc1 (stereo unspecified)	0.3	4
31	CC1=Nc2cc(C(=O)O)ccc2Sc2c(C)ccc(C)c21	3.5	9
32	CC(=O)Nc1ccc(N2CCN(C(=O)c3ccco3)CC2)cc1	0.9	-12
33	O=C(O)CC1(CC(=O)Nc2cccc3nonc23)CCCCC1	nt	-20
34	O=c1c2c(nc3nc(NCc4c(F)cccc4Cl)[nH]n13)CCC2	3.9	4
35	O=C(Nc1ccc2oc(-c3ccccc3)nc2c1)c1ccccc1	nt	9
36	Fc1ccc(-c2csc(N3CCN(C/C=C\c4ccccc4)CC3)n2)cc1	2.2	10
37	Cc1ccc(-c2nc3ncccc3o2)cc1N	nt	-17
38	O=C(Oc1ccc(OC(=O)c2ccncc2)cc1)c1ccncc1	nt	-27
39	Cc1ccc2[nH]c3c(c2c1)CCCC3O (stereo unspecified)	nt	-31
40	CC1(c2ccc3noc(-c4ccccc4)c3c2)OCCO1	-1.4	0
41	COc1ccc2oc(C(=O)N(C)Cc3ccc(Br)s3)c(C)c2c1	nt	-7
42	Cc1ccc(CC/C=N/N=C2\NC(=O)CS2)o1	nt	-19
43	CCCCC1(C(=O)OCC)CC(C)(c2csc(N)n2)OC1=O (stereo unspecified)	-5.4	2
44	Cc1ccc(Nc2[nH]c(=O)c3ccccc3c2C(=O)c2ccncc2)cc1	nt	8
45	OCCOc1ccc(C2=NCCO2)cc1	0.0	nt
46	CC(=O)Nc1sc(N)nc1-c1ccccc1	nt	17
47	CCn1c(=O)c(=O)[nH]c2cc(C(=O)N3CCN(c4ccccc4F)CC3)ccc21	nt	-5
48	O=C(O)Cc1csc2ccc(Cl)cc12	1.6	nt
49	CC(=O)c1sc(SCCS(=O)(=O)c2ccccc2)c2c1CC(C)(C)CC2=O	0.3	nt
50	CC(=O)NC(C(=O)O)C1CCCC1 (stereo unspecified)	nt	6
51	CC(C)(C)c1cc2nc3c(c(=O)n2[nH]1)CN(Cc1ccccc1)C3=O	-0.5	nt
52	O=C1[C@@H]2CSC(c3ccc(F)cc3)N2C(=O)N1c1ccccc1 (stereo partly specified)	0.6	-8
53	CSC1=NSC2=NC(=O)/C(=C\c3cccc4ccccc34)C(=N)N12	nt	26
54	O=S(=O)(Nc1cccc(-c2ccc(N3CCCC3)nn2)c1)c1ccccc1	nt	0
55	CN(C)c1ccc(/C=N/NC(=O)C(O)(c2ccccc2)c2ccccc2)o1	11	25
56	COc1ccc(C(=O)CC(C(=O)c2ccccc2)c2ccccc2)cc1 (stereo unspecified)	3.0	nt

# Remaining list, next part:
item	Molecule	MgrA-DNA mod	S aureus helic
57	O=C(c1cc(-c2csc(-c3ccccn3)n2)c[nH]1)N1CCCC1	nt	1
58	Cc1ccc(-c2c3c(=O)n(C)c(=O)n(C)c3c3c(C)cc(C)nn23)cc1	nt	3
59	COC(=O)c1cc(S(=O)(=O)N2c3ccccc3CC2C)c[nH]1 (stereo unspecified)	0.0	8
60	Cn1c(SCC(=O)NCc2ccccc2)nnc1-c1c[nH]c2ccccc12	nt	7
61	O=C1NC2(CCOc3ccccc32)C(=O)N1CCOc1c(Cl)cccc1Cl (stereo unspecified)	nt	-7
62	Cc1cc(NC(=O)Cn2c(=O)n(CC(=O)NCCc3ccccc3)c(=O)c3ccccc32)n[nH]1	nt	20
63	CCC(=O)N(c1nnc(SCC(=O)Nc2c(C)nn(-c3ccccc3)c2C)s1)C1CC1	nt	20
64	O=S(=O)(c1ccc(NN=C2CCCC2)nc1)N1CCCCC1	nt	19
65	Cc1cccc(CSc2nc3ccncc3n2CC(=O)N2CCCC2)c1	1.0	-5
66	O=C(c1cc(-c2ccc(F)cc2)nc2ccccc12)N1CCOCC1	-0.9	3
67	O=C1NC(=O)C2C1Sc1[nH]c(=O)sc1C2c1ccco1 (stereo unspecified)	nt	-18
68	NNc1ncccc1C(=O)O	5.3	2
69	Cc1ccnc(SCc2cc(=O)n3[nH]c(C)nc3n2)n1	nt	27
70	O=C(O)CCCC(=O)Nc1nc2nccc(-c3ccccc3)n2n1	nt	1
71	N#Cc1nc(-c2ccc(Cl)cc2)oc1NCc1ccco1	nt	-19
72	O=C(COC(=O)C1CC(O)CN1C(=O)Oc1ccccc1)c1ccc(-c2ccccc2)cc1 (stereo unspecified)	-1.7	0
73	CC(C)CC(N=Cc1c(O)c2ccccc2oc1=O)C(=O)O (stereo unspecified)	nt	27
74	O=C(COc1ccccc1F)OCc1cccc(C(F)(F)F)c1	nt	-14
75	COc1ccc2nccc(C(=O)O)c2c1	-1.6	nt
76	Cc1cc(/C=N/NC(N)=O)c(C)c(CO)c1	nt	-23
77	COC(=O)C1=C(NC(=O)CCCCl)CCS1	nt	2
78	CCOC(=O)c1ccc(-n2cnnn2)cc1	0.5	-2
79	COc1ccc(Cn2c(SCc3cccc(C(F)(F)F)c3)nc3ccncc32)cc1	-0.6	17
80	COc1ccc(/C=C2\SC(=O)N(CCC(=O)N3CCN(C)CC3)C2=O)cc1	nt	4

# Pulled by structure from the entries so far, 2 records:
item	Molecule	MgrA-DNA mod	S aureus helic
74	O=C(COc1ccccc1F)OCc1cccc(C(F)(F)F)c1	nt	-14
78	CCOC(=O)c1ccc(-n2cnnn2)cc1	0.5	-2

# (further entries)
item	Molecule	MgrA-DNA mod	S aureus helic
81	COc1ccc(-n2cnnc2SCC(=O)N(Cc2ccccc2)C(C)C)cc1	nt	-10
82	COc1cc(C(C)n2ccnc2)cc(Br)c1O (stereo unspecified)	nt	-30
83	O=C1N(c2ccccc2)C(c2ccc(Br)cc2)C12CCCCC2 (stereo unspecified)	-0.2	10
84	CC(=O)NC(CC(=O)Nc1nc2ccccc2[nH]1)c1ccccc1 (stereo unspecified)	nt	-14
85	O=C(c1ccccc1-c1ccccc1)N1CCOCC1	-3.6	-3
86	O=C(CN1C(=O)c2ccccc2S1(=O)=O)NC1=NN(c2ccccc2)C(=O)C1	nt	6
87	CCCNS(=O)(=O)c1cc2c3c(c1)c(C)cc(=O)n3CC2	-1.2	15
88	Cc1cc(=O)cc(C)n1NC(=O)c1cccnc1	-0.6	nt

# Entries listed so far that have bromine, in the order listed:
item	Molecule	MgrA-DNA mod	S aureus helic
41	COc1ccc2oc(C(=O)N(C)Cc3ccc(Br)s3)c(C)c2c1	nt	-7
82	COc1cc(C(C)n2ccnc2)cc(Br)c1O (stereo unspecified)	nt	-30
83	O=C1N(c2ccccc2)C(c2ccc(Br)cc2)C12CCCCC2 (stereo unspecified)	-0.2	10

# The listing picks up; the 2 compounds before the break are reprinted first.
item	Molecule	MgrA-DNA mod	S aureus helic
87	CCCNS(=O)(=O)c1cc2c3c(c1)c(C)cc(=O)n3CC2	-1.2	15
88	Cc1cc(=O)cc(C)n1NC(=O)c1cccnc1	-0.6	nt
89	O=C(O)C1C2C=CC(C2)C1C(=O)OCC1CCCO1 (stereo unspecified)	-0.2	9
90	Cc1ccccc1CSC(SCc1ccccc1C)=C(C#N)C(=O)NCc1ccco1	1.5	13
91	CCc1ccc(/C=C2\C(=O)NC(C)=C2C(=O)OC)cc1	nt	32
92	OC(CNCCNc1ncccc1C(F)(F)F)COc1ccc(Cl)c(Cl)c1 (stereo unspecified)	-2.7	nt
93	CN(C)c1nc(N)nc(CSc2nnnn2-c2ccc3c(c2)OCO3)n1	nt	15
94	Brc1ccc(-n2nnnc2/C=C/N2CCCCC2)cc1	-0.3	nt
95	Cn1c(SCC(=O)Nc2ccccc2)nnc1-c1csc(Cc2ccsc2)n1	-2.2	nt
96	CC(Nc1ccccc1CO)C(=O)Nc1cccc(Cl)c1 (stereo unspecified)	nt	-7
97	O=C(O)c1cccnc1SCc1ccc([N+](=O)[O-])cc1	-2.0	nt
98	CCOC(=O)c1c(N)sc2c1CC(C)(C)NC2(C)C	nt	14
99	C/C(=N\c1ccccn1)C1=C(O)c2ccccc2C1=O	-1.9	-11
100	Nc1nc(-c2ccccc2)cn1/N=C/c1ccccc1	nt	-16
101	CCCC(=O)Nc1nnc(Cc2ccc(Cl)cc2)s1	-2.0	11
102	Cc1ccc(NC(=O)C(F)(F)F)c(C(=O)O)c1	-2.5	nt
103	O=C(CSc1nnc(-c2cccs2)o1)c1ccc(Br)cc1	-2.0	nt
104	C=CCn1nnnc1SCC(=O)Nc1ccccc1C(=O)OC	2.1	-6
105	Cc1sc2c(c1C)CSC(C(=O)Oc1cccnc1)=C2	nt	-11
106	CC(C)(C)c1ccc(Oc2ccc(NC(=O)CCCC(=O)O)cc2)cc1	2.8	8
107	Cc1ccc(S(=O)(=O)N(CC(=O)N2CCC(C)CC2)CC(=O)N2CCC(C)CC2)cc1	-3.7	2
108	COc1ccc(CNCC2(c3ccccc3)CCCC2)cc1	3.7	7
109	C1CCN2C[C@H]3C[C@@H](CN4CCCC[C@@H]34)[C@H]2C1	-1.8	nt
110	CC(C)NC(=O)C1c2ccccc2Oc2ccccc21	nt	31
111	Nc1ccccc1SCc1nc(-c2ccc(Cl)cc2)no1	-2.2	nt
112	CN(C)C(=S)c1ccccc1	2.6	nt
113	CCOC(=O)C1(Cc2ccc(O)cc2)NC(c2ccccc2F)C2C(=O)N(C)C(=O)C21 (stereo unspecified)	-5.0	8
114	CCCCN(C)C(=O)c1cc2c(Cl)nc3ccccc3c2s1	-2.2	12
115	Cc1ccc2c(CC(=O)N3CCN(c4ncccn4)CC3)coc2c1	nt	-4
116	O=C(c1ccc(F)cc1)N1CCCCC(N2CCN(S(=O)(=O)c3ccccc3)CC2)C1=O (stereo unspecified)	nt	-12
117	Cc1nc(COc2cccc(C(=O)O)c2)cs1	nt	-7
118	Cc1cc(=O)[nH]c(NN)n1	nt	-21
119	CCCCN(Cc1ccccc1)Cc1ccco1	-0.1	23
120	O=C(O)c1cc2cc(Cl)ccc2oc1=O	-3.6	nt
121	COc1ccccc1Cn1c(=S)[nH]c2cc(C(=O)NCc3ccco3)ccc2c1=O	nt	12
122	COC(=O)N/N=C(/c1ccccc1)C1CCCCC1	nt	10
123	Cc1ccccc1-n1c(SCC(N)=O)nnc1-c1ccc(Cl)cc1	-0.2	14
124	CC(N=C1NS(=O)(=O)c2ccccc21)C(=O)NCCc1ccc2c(c1)OCCO2 (stereo unspecified)	nt	-5
125	Cc1cc(=O)oc2cc3occ(C(C)(C)C)c3cc12	nt	-5
126	CC1(C)CC(=O)C2=C(C1)NCN(Cc1ccc3c(c1)OCO3)C2	-0.8	10
127	Cc1cc(C(=O)NCC2CCCO2)c2c(C)nn(-c3ccccc3Cl)c2n1 (stereo unspecified)	nt	-16
128	Cc1cccc(-c2cc(=O)c3cc(C)ccc3o2)c1	-1.6	12

# Two entries from above, in transposed form:
(89) O=C(O)C1C2C=CC(C2)C1C(=O)OCC1CCCO1 (stereo unspecified)
(72) O=C(COC(=O)C1CC(O)CN1C(=O)Oc1ccccc1)c1ccc(-c2ccccc2)cc1 (stereo unspecified)

Screen / compound no.	89	72
MgrA-DNA mod	-0.2	-1.7
S aureus helic	9	0

# Next structures.
item	Molecule	MgrA-DNA mod	S aureus helic
129	Cc1c(Cl)cccc1NC(=O)c1ccc(N2C(=O)c3ccccc3C2=O)cc1	1.7	4
130	O=C(O)c1cc(I)ccc1NC(=O)C(F)(F)F	0.2	nt
131	COc1ccccc1Oc1ccc(N/C=C/C(=O)c2ccco2)cc1	1.4	7
132	CN(C)S(=O)(=O)c1ccc2c(c1)c(=O)c(C(=O)NCc1ccccc1)cn2C	-4.5	12

# From PubChem

# Not all compounds are listed; rates above refer to the full screens.
